# GALR2 ag – GALR2 receptor agonists, primary screen, cell-based; 140,000 compounds, 0.48% hits; GALR2-expressing cells, agonist activation read-out; AID 803, 2007; activation, %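 (tested at 5 µM)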; Galanin receptor type 2 (Homo sapiens), O43603;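 active = above mean plus 3 SD of all compounds, about 5% in these data, not always enough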;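 also: 0% = vehicle buffer wells and 100% = reference agonist at full effect; tested in CHO reporter cells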
# Target sequence (O43603 whole entry, looked up): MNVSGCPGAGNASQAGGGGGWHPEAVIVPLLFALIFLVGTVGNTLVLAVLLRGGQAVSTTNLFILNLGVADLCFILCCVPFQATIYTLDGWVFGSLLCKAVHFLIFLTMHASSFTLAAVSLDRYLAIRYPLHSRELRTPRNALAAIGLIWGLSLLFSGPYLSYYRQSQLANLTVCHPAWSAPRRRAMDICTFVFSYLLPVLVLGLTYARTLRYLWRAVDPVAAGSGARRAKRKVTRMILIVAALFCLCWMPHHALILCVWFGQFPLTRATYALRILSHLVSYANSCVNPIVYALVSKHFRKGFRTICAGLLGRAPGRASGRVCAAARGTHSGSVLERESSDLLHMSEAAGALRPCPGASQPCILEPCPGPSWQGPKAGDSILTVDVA
# PKD1 inh – inhibitors of human PKD1 kinase, biochemical, fluorescence polarization | 200,000 compounds, 0.056% hits | inhibition, %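 (about 10 µM by stock and volumes)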 | PKD1 kinase fluorescence polarization assay | AID 797, 2007;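 active = inhibition of 50% or more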;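 also: controls were vehicle for no effect and a reference inhibitor for full effect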
# RGS16-Gao HTS – modulators of RGS16 binding to Galphao, primary screen, biochemical, human proteins, multiplexed bead flow cytometry | bead-based flow cytometry RGS16-Galphao binding, fluorescence; actives lie on both sides | binding response (% of control), % at 10 µM | 220,000 compounds, 0.38% hits;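 active = below 25% or above 175%, edge rows of some plates excepted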;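 also: Galphao activated by GDP with aluminum fluoride before binding; 100% = wells without compound and 0% = beads without RGS; some results beyond the cut were filed as inactive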
# INS promoter inh – inhibitors of insulin promoter-driven GFP, primary screen, imaging, TRM-6 cells (human fetal islet line), eGFP reporter, cell count. AID 1273, 2008. 130,000 compounds, 0.9% hits. inhibition, % at 2 µM. reporter expression induced with tamoxifen;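 active = inhibition above the mean plus 3 SD, with well images judged a real hit on visual review, cut at about 60% in these data, passing the limit was not always enough; inconclusive = inhibition over the cutoff but images rejected on review; inactive = inhibition not above the cutoff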
# HSV replic up – enhancers of HSV replication in host cells, fold increase, host cell viability. AID 1956, 2009. maximum fold increase. 220,000 compounds, 0.005% hits. HSV replication augmentation in cells;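 active = peak rise of 1.5-fold or more in the series; inconclusive = self-fluorescent or not available for retest; tested in PC3 cells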;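 also: first round at 10 µM; read as green reporter fluorescence; hits show the peak of a series up to 25 µM; 1 = signal of infected wells without compound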
# INS promoter inh cell count – further read-out of INS promoter inh, marked with its call; normalized cell count, %; measured here: cell count, toxicity; reference of the scale not given here;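 cells exposed to compound for 48 h; stained nuclei by imaging scaled within each plate; lower means fewer cells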
# HSV replic up primary fold – second read-out of HSV replic up, no call of its own (marks repeat the call); fold increase; compound at 10 µM; measured here: primary screen fold increase 10 uM; tested in PC3 cells;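 GFP signal in the first replicate; 1 = infected wells without compound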
# Active calls of the source: *; i = inactive; ? = inconclusive; nt = no result given.
SMILES,GALR2 ag,PKD1 inh,RGS16-Gao HTS,INS promoter inh,INS promoter inh cell count,HSV replic up,HSV replic up primary fold
CC(C)(C)CC(C)(C)N1CNC(=S)NC1,nt,nt,103,nt,nt,i,0.98
O=C(O)CN1CCc2ccccc2C1,nt,-3,98,nt,nt,i,0.9
COCc1nnc(NC(=O)CSCc2ccccc2)s1,-1.7,-7,102,-11,94,i,0.95
CC(C)c1ccc(NC(=O)C(=O)c2cn(CC(=O)N3CCCCC3)c3ccccc23)cc1,-0.5,2,97,nt,nt,i,0.89
CCn1nc(CC(=O)Nc2nnc(CC(=O)N3CCCC3)s2)c2ccccc2c1=O,-2.4,10,99,50,196,i,0.92
COc1ccc(-n2c(SCC(=O)NCc3cccs3)nnc2-c2ccoc2C)cc1,0.1,0,106,nt,nt,nt,nt
O=C(N/N=C/C(Cl)=C/c1ccccc1)c1ccco1,nt,6,101,nt,nt,i,0.89
CCC(=O)N1CC(C)C(=O)Nc2ccccc21 (centres undefined),-1.1,3,103,nt,nt,i,0.92
O=C(CC(C(=O)NCc1ccccc1)c1nc2ccccc2c(=O)[nH]1)NCc1ccccc1 (centres undefined),nt,nt,96,nt,nt,i,0.9
O=C(CCCC(=O)NNC(=O)Nc1ccccc1)NNC(=O)Nc1ccccc1,nt,6,104,nt,nt,i,0.95
CCCOC(=O)c1cccc(NC(=O)c2cccnc2)c1,-1.6,-5,101,-12,90,i,0.93
CC(C)n1c(O)c(N=NC(=O)Cc2csc(N3CCOCC3)n2)c2ccccc21,nt,5,99,-33,81,i,1
Cc1cs/c(=N\N=C\c2cccc([N+](=O)[O-])c2)n1Cc1ccco1,-0.8,-6,101,nt,nt,i,1.1
N#C[C@H]1[C@H](c2ccccc2)[C@](C#N)(C(=O)c2ccccc2)[C@@H]2C=Cc3ccccc3N21,-0.8,-5,99,nt,nt,nt,nt
COc1cccc(Cn2cccc(NC(=O)Nc3ccccc3C)c2=O)c1,nt,3,96,48,161,i,1
Cc1ccc(NC(=S)C2=C(O)c3ccccc3N(C)S2(=O)=O)cc1,-0.5,-11,100,8,97,i,1.2
O=C(CNS(=O)(=O)N1CCOCC1)N/N=C/c1cccnc1,nt,-4,105,nt,nt,i,0.96
O=C(NCC(=O)N(CC1CCCO1)C(C(=O)NC1CCCCC1)c1ccc(F)cc1)c1ccco1 (centres undefined),-1.6,-3,106,-107,47,i,0.95
COc1cc(/C=C(\C#N)c2nc3ccccc3n2C)cc(OC)c1O,nt,-3,102,-479,68,?,nt
COc1ccc(-c2nc(CSCC(=O)N3CCc4ccccc43)c(C)o2)cc1OC,-0.7,-11,107,-257,51,i,0.93
O=C(C1CCCCC1)N1CCC(c2nc3c(nnn3Cc3c(F)cccc3Cl)c(=O)[nH]2)CC1,-0.7,-7,105,-48,86,i,0.87
C/C(=N\NC(=O)c1ccc(C)cc1C)c1ccc2c(c1)Nc1ccccc1S2,-2.8,-1,93,44,102,i,0.75
CCN(CC)C(=O)Cn1cnc2sc(C(=O)N3CCN(c4ccc(F)cc4)CC3)c(C)c2c1=O,nt,5,100,12,61,i,1
Cn1cc(C(=O)c2ccc(Cl)cc2Cl)cc1C(=O)O,-1.7,8,100,-15,107,nt,nt
Cc1ccc(S(=O)(=O)Cc2csc(N)n2)cc1,-1.4,-7,84,nt,nt,i,0.89
# Next entries follow:
SMILES,GALR2 ag,PKD1 inh,RGS16-Gao HTS,INS promoter inh,INS promoter inh cell count,HSV replic up,HSV replic up primary fold
O=C(CN1CCOCC1)Nc1ccccc1,-0.4,3,297,-7,74,i,0.87
COc1ccccc1CNC(=O)CCCn1c(=O)c2ccccc2n(CC(=O)NC2CCCC2)c1=O,-0.1,-2,97,-13,107,i,0.9
O=C(CCCC(=O)OCC(Cl)=C(Cl)Cl)Nc1ccc(F)cc1,-1.1,1,114,12,165,i,1.1
Cc1ccc(C2C(C#N)=C(N)Oc3n[nH]c(-c4ccccc4)c32)o1 (centres undefined),-2.8,-3,101,-18,114,i,0.96
O=C(COC(=O)Cc1ccsc1)NCc1ccccc1,-1.0,-4,104,44,168,i,1
Cc1nn(-c2ccccc2)c2[nH]c(=O)c(CNCCN3CCOCC3)cc12,0.3,-17,102,30,137,i,1
O=C(Cn1cnc2ccccc21)N/N=C/c1ccccc1,nt,-4,111,-75,98,i,0.87
S=c1[nH]ncn1/N=C/c1ccccn1,-1.1,-5,100,-24,102,i,0.86
Cc1cccc(C)c1NC(=S)NCCCN1CCCC1=O,-0.5,-7,99,-10,104,i,0.96
Cc1cccc(/N=C2/NC(=O)C(Cc3ccccc3)S2)n1 (centres undefined),nt,-5,108,-17,95,i,0.99
CC(=O)NS(=O)(=O)c1ccc(NC(=O)CSc2ccc(Cl)cc2)cc1,nt,-8,107,nt,nt,i,1
O=C(NCc1ccccc1)c1sc(=S)n2c1[nH]c(=O)c1ccccc12,-1.5,-9,72,-18,139,i,0.83
CCCNC(=O)c1ccccc1NC(=O)CSCc1ccc(OC)cc1,-1.4,-2,106,14,117,i,0.66
CCOC(=O)c1[nH]c2c(c1C)C(=O)CC(c1ccc(F)cc1)C2 (centres undefined),-0.2,-9,100,-414,7,i,0.67
O=S(NCc1ccco1)C12CC3CC(CC(C3)C1)C2 (centres undefined),-2.3,-2,37,-33,110,i,1
CCc1ccc(NS(=O)(=O)c2cc(OC)ccc2OC)cc1,-4.8,-2,98,nt,nt,i,0.96
O=C(CNC(=S)N(Cc1ccccc1)Cc1cccnc1)N1CCOCC1,nt,5,99,-17,81,i,0.88
N#CCCn1cc(/C=N/NC(N)=S)c(-c2ccc(-c3ccccc3)cc2)n1,nt,2,97,57,70,i,0.74
CC(C)(C)CC(=O)NCCCN1CCOCC1,nt,-5,101,nt,nt,i,0.98
COc1ccc(C(=O)NCCCCCC(=O)O)cc1OC,-1.4,-3,100,7,171,i,1
CC(C)(CNC(=O)c1cc2ccccc2o1)N1CCOCC1,-3.6,-14,100,nt,nt,i,0.93
Cc1c(C)n(C)c2ccc(C(=O)NCc3cccs3)cc12,-1.5,-4,106,nt,nt,i,0.9
COc1cccc(-n2sc3c(c2=S)-c2cc(OC)ccc2NC3(C)C)c1,-3.3,-5,99,nt,nt,i,1
CCc1ccc(OCc2nnc(SCC(=O)N3CCOCC3)o2)cc1,nt,0,151,nt,nt,i,0.97
CNC(=O)C(NC(=O)Nc1ccc(C)cc1)C(C)(C)C (centres undefined),nt,-12,99,35,104,i,0.85
# Carrying on.
SMILES,GALR2 ag,PKD1 inh,RGS16-Gao HTS,INS promoter inh,INS promoter inh cell count,HSV replic up,HSV replic up primary fold
COC(=O)c1c(C)c2c(C)cc3ccccn3c-2c1C(=O)OC,-1.2,-3,105,-9,57,i,1
CCOc1cccc2cc(-c3cn4cc(C)ccc4n3)c(=O)oc12,-0.4,-11,100,10,82,i,0.91
O=C1c2cccnc2C(=O)N1Cc1ccco1,-1.2,5,117,22,69,i,1
Cc1ccc(S(=O)(=O)NC(CC(C)C)C(=O)N2CCC(C)CC2)cc1 (centres undefined),nt,-7,103,nt,nt,i,1.1
Nc1cc(-c2ccc(Br)cc2)nn1S(=O)(=O)c1cccc2nsnc12,-4.2,-1,96,nt,nt,nt,nt
Cc1ccccc1C(=O)NC(C)C(c1cccs1)N1CCOCC1 (centres undefined),-2.2,-10,100,nt,nt,i,0.94
COc1cccc(CNC23CC4CC(CC(C4)C2)C3)c1OCc1ccccc1,nt,0,97,nt,nt,i,0.78
Nc1ccn([C@@H]2CS[C@H](CO)O2)c(=O)n1,nt,nt,100,nt,nt,i,0.82
COCC(=O)N(CCc1ccc(OC)c(OC)c1)Cc1nc2ccccc2c(=O)[nH]1,0.8,-7,100,0,93,i,0.98
Cc1ccc(Cn2c(=O)cc(C(=O)O)c3ccccc32)cc1,-0.4,10,104,nt,nt,i,0.72
CCOC(=O)c1ccc(NC(=O)CSc2nnc(Cc3cccs3)n2C)cc1,0.6,-6,45,11,56,i,0.92
CCCOc1ccc(CN(CCO)CCO)cc1[N+](=O)[O-],0.5,-1,99,20,142,i,0.94
CC(C)c1ccc(NC(=O)C(c2ccc3c(c2)OCO3)N2CCC3(CC2)OCCO3)cc1 (centres undefined),0.2,-5,105,nt,nt,i,0.84
CCOC(=O)c1sc(-c2cccc([N+](=O)[O-])c2)cc1N,nt,1,94,7,65,i,0.81
Cc1ccccc1-n1nnnc1SCCCC(=O)c1ccc(F)cc1,-0.4,-8,94,nt,nt,i,1.1
Cc1cccc(-n2c(=O)c3c4c(sc3n3c(=S)[nH]nc23)CCC4)c1,nt,-4,101,-8,66,i,0.97
Nc1nnc2c(n1)CCCC2,-0.7,-2,94,nt,nt,i,0.91
CCN(CC)C(C(=O)Nc1ccc(C(C)C)cc1)c1ccc2c(c1)OCO2 (centres undefined),0.8,-7,103,-65,99,i,0.9
CCc1ccc(OCC(=O)NC(=S)Nc2cccc(CO)c2)c(Br)c1,-0.7,-16,92,-27,89,i,0.83
COCCN1Cc2cccc(C(=O)Nc3ccc4c(c3)OCCO4)c2C1=O,0.3,-1,104,nt,nt,i,1.2
Cc1cccc(NC(=O)CSc2nc3ccc(N4C(=O)c5ccccc5C4=O)cc3s2)c1C,-2.3,9,104,nt,nt,i,1.1
COc1ccc(F)cc1C(=O)C1CCCN(C(=O)c2cccc(N(C)C)c2)C1 (centres undefined),nt,3,95,nt,nt,i,1.1
CCOC(=O)c1cn(-c2ccc(F)c(F)c2)c2c(F)c(F)c(F)c(F)c2c1=O,-1.2,-6,104,nt,nt,nt,nt
CCOC(=O)c1sc(NC(=O)C2CC=CCC2C(=O)O)nc1C (centres undefined),-1.0,5,108,17,131,i,0.84
O=C(NC1CC1)C1CCN(C2CCN(C(=O)/C=C/c3ccc(F)cc3)CC2)CC1,nt,-7,104,nt,nt,i,1
CCn1c(C)c(C2=CCN(S(=O)(=O)c3ccccc3)CC2)c2ccccc21,-0.2,-4,104,-37,103,?,nt
NC(=S)Cc1nc(-c2ccc(Cl)cc2)cs1,nt,-4,101,-53,95,i,1.1
Cc1nn(-c2ccccc2)c(Cl)c1/C=N/NC(=O)c1ccco1,-2.2,-7,102,50,84,i,0.91
CSc1nc2ncc3c(n2n1)CC1c2ccccc2CCN1C3=O (centres undefined),0.0,-12,98,-48,122,i,0.51
